Bioassay records: PubChem BioAssay, several laboratories
HUVEC prolif 384: blocks proliferation of human endothelial cells | AID 648 | HUVEC proliferation, CellTiter-Glo luminescence, 72 h; active compounds read low | 86,000 compounds, 1.1% hits | viability, % at 10 µM (by protocol);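 active means viability at or below 30%; inactive means viability above 30%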;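 further: 100% = median luminescence of DMSO-only cell control wells on each plate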
Smad3 FoxH1 inh: inhibitors of human Smad3 transcription factor binding; 88,000 compounds, 0.29% hits; inhibition, % at 25 µM; TR-FRET Smad3/Dy647-FoxH1 peptide binding, europium anti-His;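 active means compounds that reduce the energy-transfer binding signal between the protein and its labelled peptide by more than half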;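 further: 0% = Smad3 plus labelled peptide maximal FRET and 100% = peptide-only background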
Target sequence (P84022 whole entry, looked up): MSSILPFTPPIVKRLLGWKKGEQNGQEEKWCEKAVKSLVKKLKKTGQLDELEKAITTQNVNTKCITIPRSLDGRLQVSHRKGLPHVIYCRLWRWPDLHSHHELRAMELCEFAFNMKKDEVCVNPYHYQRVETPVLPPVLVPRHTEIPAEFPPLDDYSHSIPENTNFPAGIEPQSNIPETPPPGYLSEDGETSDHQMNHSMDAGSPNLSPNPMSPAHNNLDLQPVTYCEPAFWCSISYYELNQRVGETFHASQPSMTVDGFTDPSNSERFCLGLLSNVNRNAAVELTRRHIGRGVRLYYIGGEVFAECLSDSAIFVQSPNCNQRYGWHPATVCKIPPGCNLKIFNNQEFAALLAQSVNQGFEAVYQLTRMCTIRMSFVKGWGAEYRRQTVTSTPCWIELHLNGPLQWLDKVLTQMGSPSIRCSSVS
Fibroblast inh: blocks proliferation of human lung fibroblasts. LL 47 human lung fibroblast viability, ATP luminescence; active compounds read low. viability, % at 10 µM. 85,000 compounds, 1.1% hits;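 active means viability at or below 50% in the single dose screen; inactive means viability above 50%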;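 further: compound exposure lasted 72 h before the ATP readout; 100% = median luminescence of untreated cell-only wells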
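Test system: LL 47 human lung fibroblasts / Incubation: 72 h compound exposure at 37 °C after overnight plating / Technique: luminescent ATP detection, CellTiter-Glo / Compound dosing: 0.1% DMSO in all compound wells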
cytoskel mod: modifiers of cytoskeleton assembly; HUVEC TNFa F-actin phalloidin imaging, high content; inhibition, % at 2 µM; 91,000 compounds, 0.18% hits;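 active means inhibition above the batch mean plus 3 SD and confirmed as a hit by visual image inspection, cut at about 30% in these data, passing the limit was not always enough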; further: strong numbers were not always called active
HUVEC tox TNFa: HUVEC cytotoxicity counter-screen, TNF alpha stimulated | HUVEC TNFalpha-stimulated, Hoechst cell count, imaging | cell count reduction, % at 2 µM | 93,000 compounds, 0.17% hits;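 active means cell count reduction exceeding the screen mean by over 5 SD, scaled to untreated wells per plate, cut at about 78% in these data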;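 further: cells counted after 24 h of TNF alpha exposure following the 1 h pretreatment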
* marks the source's active call; other numbers are inactive results; nt = not tested or not shown; [ ] = remark or other dose. These rows are one share of the data, so the mix of outcomes need not match the whole.

cpd | mol | HUVEC prolif 384 | Smad3 FoxH1 inh | Fibroblast inh
1 | N#Cc1ccc(-c2cccnc2)nc1SCc1ccc(Cl)cc1Cl | nt | nt | nt
2 | Cc1ccc(OCC(=O)Nc2ccc(-c3nc4ncccc4o3)cc2)c(C)c1 | 71 | 9[fluorescence artefact?] | 97
3 | OCCN=c1cc(-c2ccccc2)oc2ccc(Cl)cc12 | 87 | 13 | 75
4 | O=C(NCc1cccnc1)c1cc(-c2ccco2)on1 | 96 | -3 | 95
5 | O=C(Nc1ccccc1)c1ccccc1O | 92 | 9 | 96
6 | CN(C)CCC=C1c2ccccc2CCc2ccccc21 | 89 | 12 | 87
7 | COc1ccc(-c2cc3ccccc3oc2=O)cc1NC(=S)NC(=O)c1ccc2c(c1)OCCO2 | nt | nt | nt
8 | COC(=O)c1cc(Cl)c(NC(=O)/C=C/c2ccc(Cl)cc2)cc1OC | nt | nt | nt

cpd | cytoskel mod | HUVEC tox TNFa
1 | -13 | -6
2 | -13 | 1
3 | 18 | -28
4 | 45 | -19
5 | 4 | -10
6 | nt | nt
7 | -35 | 8
8 | -8 | 3

4 entries picked at random from those above, as already listed:
cpd | mol | HUVEC prolif 384 | Smad3 FoxH1 inh | Fibroblast inh
3 | OCCN=c1cc(-c2ccccc2)oc2ccc(Cl)cc12 | 87 | 13 | 75
2 | Cc1ccc(OCC(=O)Nc2ccc(-c3nc4ncccc4o3)cc2)c(C)c1 | 71 | 9[fluorescence artefact?] | 97
4 | O=C(NCc1cccnc1)c1cc(-c2ccco2)on1 | 96 | -3 | 95
5 | O=C(Nc1ccccc1)c1ccccc1O | 92 | 9 | 96

cpd | cytoskel mod | HUVEC tox TNFa
3 | 18 | -28
2 | -13 | 1
4 | 45 | -19
5 | 4 | -10

Other results
cpd | mol | HUVEC prolif 384 | Smad3 FoxH1 inh | Fibroblast inh
9 | CC1=NC(C)(C)Cc2ccccc21 | 102 | 0 | 107
10 | c1ccc2c(-c3ccncc3)c[nH]c2c1 | 82 | -7 | 106
11 | CCCn1c(NC(=O)c2ccc(Cl)c(S(=O)(=O)N3CCCC3)c2)nc2ccccc21 | 41 | 1 | 56
12 | COc1c2occc2cc2ccc(=O)oc12 | 99 | 6[fluorescence artefact?] | 100
13 | Cc1ccc(-c2nn(C(C)(C)C)c3ncnc(N)c23)cc1 | nt | nt | nt
14 | CN(C)C=NC(=O)/C(C#N)=C1\CCc2ccccc2N1 | 100 | 1 | 115
15 | O=C(O)CC(O)C(=O)O (stereo not given) | 92 | 0 | 100
16 | Cc1[nH]nc(N=CC2=C(O)CC(C)(C)CC2=O)c1-c1ccc(Cl)cc1 | 106 | 3 | 92

cpd | cytoskel mod | HUVEC tox TNFa
9 | -16 | 6
10 | 3 | -6
11 | 39 | -5
12 | 12 | -20
13 | -19 | 6
14 | 22 | -2
15 | nt | -10
16 | 11 | 7

Other entries
cpd | mol | HUVEC prolif 384 | Smad3 FoxH1 inh | Fibroblast inh
17 | CN(C)c1cc(N)c2ccccc2n1 (tested in a mixture with another compound) | 88 | 6 | 95
18 | CC(C)c1nc(SCC(=O)N2CCCC2)c2ccccc2n1 | 84 | 1 | 82
19 | CC(O)CN=c1cc(-c2ccccc2)oc2ccc(Cl)cc12 (stereo not given) | 78 | 20 | 69
20 | CC1=CC(C)(C)Nc2ccccc21 | 105 | 7 | 92

cpd | cytoskel mod | HUVEC tox TNFa
17 | -6 | -13
18 | 6 | -30
19 | 7 | -15
20 | -11 | 9

Part of the list above in order of formula weight, rising.
cpd | mol | HUVEC prolif 384 | Smad3 FoxH1 inh | Fibroblast inh
17 | CN(C)c1cc(N)c2ccccc2n1 (tested in a mixture with another compound) | 88 | 6 | 95
19 | CC(O)CN=c1cc(-c2ccccc2)oc2ccc(Cl)cc12 (stereo not given) | 78 | 20 | 69
18 | CC(C)c1nc(SCC(=O)N2CCCC2)c2ccccc2n1 | 84 | 1 | 82

cpd | cytoskel mod | HUVEC tox TNFa
17 | -6 | -13
19 | 7 | -15
18 | 6 | -30

In the list so far, 3 have an aryl methoxy group.
cpd | mol | HUVEC prolif 384 | Smad3 FoxH1 inh | Fibroblast inh
7 | COc1ccc(-c2cc3ccccc3oc2=O)cc1NC(=S)NC(=O)c1ccc2c(c1)OCCO2 | nt | nt | nt
8 | COC(=O)c1cc(Cl)c(NC(=O)/C=C/c2ccc(Cl)cc2)cc1OC | nt | nt | nt
12 | COc1c2occc2cc2ccc(=O)oc12 | 99 | 6[fluorescence artefact?] | 100

cpd | cytoskel mod | HUVEC tox TNFa
7 | -35 | 8
8 | -8 | 3
12 | 12 | -20
